Screening data deposited in PubChem BioAssay by National Center for Advancing Translational Sciences (NCATS).
gsp antag = qHTS for Antagonists of gsp, the Etiologic Mutation Responsible for Fibrous Dysplasia/McCune-Albright Syndrome: qHTS; gsp-mutant cells, cAMP HTRF, 30 min; control for the full effect not named in the record; Potency, µM (doses to about 76.9 µM), inactives show at the highest dose activity change, negative = inhibition, hits mostly inhibitors; 0.4% of 340,000 active; AID 624288, 2012; active = falling curve of any shape with a large fitted effect; inconclusive = falling curve, mostly with a smaller effect; inactive = flat or rising curve; cell line not stated here;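 note: intracellular cAMP measured with PDE inhibitor Ro 20-1724 present during compound exposure; potency is the fitted concentration of half-maximal effect; % is set by controls: 0 for no effect and ±100 for the full control effect; nearly all actives have a fitted effect of over 65% in size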
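Measurement of cellular cAMP by homogeneous time-resolved fluorescence following a 30 min compound exposure at 37C. The PDE inhibitor […] was present throughout; the assay buffer was DPBS with 0.05% BSA and 0.005% Tween 20.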
Six1-Eya2 inh = qHTS Assay for Inhibitors of the Six1/Eya2 Interaction | AlphaScreen GST-Six1/His-Eya2 binding, biochemical; stronger effect = lower value; control for the full effect not named in the record | activity change, % (concentration not given with the values) | Homeobox protein SIX1 (Homo sapiens) + Protein phosphatase EYA2 (Homo sapiens), … | 0.56% of 360,000 active; in the data active = activity change below about -65%; inconclusive = about -30% to -65%; inactive = above about -30%; note: % is set by controls: 0 for no effect and ±100 for the full control effect
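Six1/Eya2 binding was read as AlphaScreen signal after compounds were pinned into GST-Six1 plus His-tagged Eya2 (5X stock 250/500 nM) in pH 8.0 Tris/NaCl/TCEP buffer, beads added, then incubated 1 h, 37 C, dark.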
CtBP-E1A blk = qHTS Assay for Inhibitors of the CtBP/E1A Interaction. AlphaScreen GST-E1A/His-CtBP binding, 1536-well; stronger effect = lower value; control for the full effect not named in the record. activity change, % (no concentration beside the values). 0.49% of 340,000 active; in the data active means activity change below about -65%; inconclusive means about -30% to -65%; inactive means above about -30%; note: % is set by controls: 0 for no effect and ±100 for the full control effect; compound concentration not given in the record
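In 5 uL wells, 23 nL compound meets equimolar GST-E1A and His-CtBP (5X stock 125 nM each) for 2 h, 37 °C. Beads (5X, 50 ug/mL) then 1 h, 37 °C, dark.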
D2 ag = Beta-Arrestin HTS for Positive Allosteric Modulators of the Human D2 Dopamine Receptor: Agonists | D(2) dopamine receptor (Homo sapiens), P14416 | DiscoveRx PathHunter D2 beta-arrestin, luminescence, 90 min; 100% = 57 uM dopamine signal | activation, % (concentration not given with the values) | 0.084% of 360,000 active | AID 624465, 2012; in the data active = activation above about 40%; inconclusive = about 15% to 40%; inactive = below about 15%; note: compound concentration not given in the record; the text of the record calls up to 30% inactive
Target sequence (P14416 whole entry, looked up): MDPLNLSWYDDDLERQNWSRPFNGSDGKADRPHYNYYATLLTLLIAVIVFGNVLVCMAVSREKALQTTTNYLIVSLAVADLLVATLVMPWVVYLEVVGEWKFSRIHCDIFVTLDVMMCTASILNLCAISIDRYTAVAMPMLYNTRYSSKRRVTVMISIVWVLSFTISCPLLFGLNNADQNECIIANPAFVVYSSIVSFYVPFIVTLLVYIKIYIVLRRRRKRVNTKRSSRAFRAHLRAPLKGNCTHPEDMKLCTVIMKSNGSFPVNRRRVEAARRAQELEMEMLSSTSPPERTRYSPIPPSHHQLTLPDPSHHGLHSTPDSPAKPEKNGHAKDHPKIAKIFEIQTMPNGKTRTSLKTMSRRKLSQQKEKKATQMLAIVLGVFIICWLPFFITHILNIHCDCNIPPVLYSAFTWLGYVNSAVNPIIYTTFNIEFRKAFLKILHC
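DiscoveRx PathHunter D2 beta-arrestin cells (2,100/well) attached overnight, then compound-stimulated 90 min at 37 C in HBSS/10 mM HEPES/0.1% Tween-20 buffer; beta-galactosidase complementation read by luminescence after 1 h at ambient temperature. Dopamine 57 uM final (EC100) as control.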
D2 PAM = Beta-Arrestin HTS for Positive Allosteric Modulators of the Human D2 Dopamine Receptor: Potentiators; DiscoveRx D2 beta-arrestin cells, luminescence, 90 min; 100% = 57 uM dopamine signal; 0.23% of 360,000 active; D(2) dopamine receptor (Homo sapiens), P14416; AID 624464, 2012; potentiation, % (test concentration not listed); active = potentiation of 50% or more; inconclusive = 30% to 50%; inactive = 30% or less;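 note: compound concentration not given in the record; tested on top of an EC20 dose of dopamine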
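PathHunter D2 cells, attached overnight at 37 deg C, received compound in DMSO plus dopamine at EC20 (50 nM final) for 90 min at 37 deg C. Beta-arrestin recruitment was read as luminescence after 1 h with detection reagent at ambient temperature.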
gsp ag = qHTS for Agonist of gsp, the Etiologic Mutation Responsible for Fibrous Dysplasia/McCune-Albright Syndrome: qHTS. gsp mutant cells, cAMP HTRF, 30 min; control for the full effect not named in the record. 0.13% of 340,000 active. Potency, µM (series often up to 76.9 µM), for inactives: at the top dose activation (cAMP increase), usual class: activators; active = well fitted activation curve with a large enough effect; inconclusive = small, poorly fitted or top-dose-only effect, or another doubt; inactive = no such curve, though single readings can be large or run the other way; cell line not stated here;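 note: phosphodiesterase inhibitor Ro 20-1724 added with compounds to block cAMP breakdown; potency is the fitted concentration of half-maximal effect; nearly all actives have a fitted effect of over 60% in size; about a fifth of the inactives were tested at one dose only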
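Cells in DMEM/10% FBS with G418 were pretreated with compounds in DMSO plus […] (300 uM stock) for 30 min at 37C. cAMP was measured by HTRF (cAMP-d2 plus anti-cAMP antibody-K) after 30 min at room temperature.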
Numbers without * were called inactive; ? = inconclusive; · = not tested or not shown; [ ] = remark or other dose.

gsp antag,Six1-Eya2 inh,CtBP-E1A blk,D2 ag,D2 PAM,gsp ag,smiles
?,-7,-1,4.5,-3,2%,CCOC(=O)C1CCCN(Cc2nc3ccc([N+](=O)[O-])cc3c(=O)n2-c2ccc(OC)cc2OC)C1 (stereo not given)
-4%,0,5,-5.9,-13,-20%[15.4 µM],C/C(=N\NC(=O)c1cc2ccccc2cc1O)c1ccc(C)o1
11%,11,3,-1.8,0,-3%,Nc1ncc(Br)cc1S(=O)(=O)NCCC(=O)N1CCN(c2ncccn2)CC1
9%,0,-9,-1.3,-26,0%,CCN(CC)CCOc1ccc(Br)cc1
-5%,3,5,-4.2,-9,-65%[inhibitor],CCC(C)NC(=O)c1csc2c1CCCCC2 (stereo not given)
-6%,3,4,-5.4,-1,3%,Cc1cc(C)cc(NC(=O)CCN2C(=O)c3ccccc3S2(=O)=O)c1
-9%,-5,-7,0.1,-19,4%,O=S(=O)(c1ccc(Cl)s1)N1CCN(C/C=C/c2ccccc2)CC1
0%,-2,·,-4.4,-26,?,Cc1c(C(=O)O)cccc1-c1ccc(/C=C2\SC(=O)NC2=O)o1
20%,-3,7,-4.9,-17,7%,CC1CC(C)CN(CCCNC(=O)c2csc3c2CCCCC3)C1 (stereo not given)
-6%,1,·,1.6,-32,20%,CCN(c1ccccc1)S(=O)(=O)c1ccc(C(=O)NCC(=O)Nc2ccc(F)c(F)c2F)cc1
1%,13,2,-2.2,-5,1%,Cn1ccnc1SCC(=O)c1c[nH]c2ccccc12
-1%,-10,1,0.6,-2,19%,COC(=O)COc1ccc(S(=O)(=O)N2CCCCC2)cc1[N+](=O)[O-]
-10%,7,11,0.3,-22,-36%[inhibitor],O=C(Cn1cnc2scc(-c3ccccc3)c2c1=O)N1CCOCC1
-7%,0,-3,0.6,3,13%,Cc1nn(C)c(C)c1CN(C)C(=O)c1cc2n(n1)C(C(F)(F)F)CC(c1cccs1)N2 (stereo not given)
1%,-8,6,3.6,19,-3%,CCOC(=O)c1c(C)oc2c1c(C=NC1CCS(=O)(=O)C1)c(O)c1ccccc12 (stereo not given)
·,0,-21,-4.9,-4,·,O=C(Nc1nnc([C@H]2C[C@H](O)[C@@H](CO)O2)s1)c1cccc(Oc2ccccc2)c1
8%,12,13,-3.3,-3,-12%,CC(=O)c1ccc(NC(=S)N2CCN(CCN3C(=O)c4cccc5cccc(c45)C3=O)CC2)cc1
10%,7,0,2.3,3,24%,CN(Cc1ccccc1)S(=O)(=O)c1ccc2c(c1)n(C)c(=O)c(=O)n2C
-16%,-17,-6,-3.9,-1,9%,Brc1cc2c(cc1/C=N/Nc1nc(N3CCCC3)nc(N3CCOCC3)n1)OCO2
-7%,-15,-11,0.1,-5,30%[15.4 µM],Cc1[nH]n(-c2ccccc2)c(=O)c1C=Nc1ccc(S(N)(=O)=O)cc1
0%,0,-2,-1.3,-14,21%,Cn1nnc2cc(C(=O)NCc3ccc4c(c3)OCO4)ccc21
-2%,3,16,-0.6,-8,-3%,Cc1ccc(-c2nnc(Cc3ccc(Cl)cc3)o2)cc1
-12%,14,15,1.5,-1,13%,CCOc1ccc2c3c(c(=O)oc2c1OCC)CCCC3
1%,1,7,-1.5,0,-15%,O=C1C(=O)N(CCOCCO)C(c2ccccn2)/C1=C(\O)c1ccccc1 (stereo not given)
17%,9,9,-3.6,1,-30%,CCN(CCC(=O)O)c1ccccc1
2%,3,-3,-5.4,-16,-14%,CCC(C)NC(=S)N(Cc1cc2cc(C)ccc2n2nnnc12)CC(C)(C)NC(C)C (stereo not given)
-4%,1,3,-0.5,0,2%,COc1ccccc1N1CCN(c2cc(C)nc3nc(C)nn23)CC1
5%,5,-5,1.3,-6,-2%,CC(=O)COC(=O)C1CC(=O)N(c2ccc(C)c(C)c2)C1 (stereo not given)
9%,4,8,-0.5,-1,18%,O=C(Cc1c(F)cccc1Cl)OCN1C(=O)c2ccccc2C1=O
4%,-18,-13,-1.9,-26,15%,Cc1ccc(C)c(N2CCN(CCCNC(=O)Cn3cccc3C(=O)c3ccccc3)CC2)c1
7%,-11,-4,3.5,-1,?,COc1ccc(CNC(=O)c2cnc3scc(C)n3c2=O)cc1
-15%,1,-7,-0.3,-7,4%[15.4 µM],O=C(COc1ccc(S(=O)(=O)NCc2ccccc2)cc1)NCc1cccnc1
5%,-3,0,-4.4,-7,?,CCc1nc2ccccc2n1CC(=O)Nc1cc(C)on1
2%,2,·,-2.6,-5,7%,O=C(/C=C/c1cccs1)NCc1cccs1
-1%,-2,3,-1.4,-10,21%,Cn1cnnc1SCc1ccc(C#N)cc1
-15%,2,7,-0.4,-6,?,C(#CCN1CCOCC1)COCCCOC(c1ccccc1)c1ccccc1
-2%,7,11,-2.2,-6,30%,O=C(C1CCOCC1)N1CCCC(N2CCN(c3cccc(Cl)c3)CC2)C1 (stereo not given)
16%,-12,-28,3.7,-14,?,CCOc1cc(C2C(C#N)=C(N)SC(N)=C2C#N)ccc1OCCN1CCOCC1
9%,-4,-3,1.8,-101,·,CC(C)C[C@@H]1CN=C(N)N1C[C@@H]1CCCN1C[C@H](C)N1C[C@@H](Cc2ccccc2)N(CCc2ccc(Cl)c(Cl)c2)C1=N
5%,2,-3,-1.1,-1,-35%[inhibitor],CCN(C(=O)Cn1nc(C)c([N+](=O)[O-])c1C)c1c(N)n(Cc2ccccc2)c(=O)[nH]c1=O
11%,-3,-11,-2.2,-5,2%,CCCN1CN(Cc2ccccc2)CNC1=S
2%,7,23,-5.0,-17,12%,Cc1ccc(C(=O)NNC(=O)c2cccnc2SCc2cccc([N+](=O)[O-])c2)cc1
-16%,-10,1,-5.2,17,2%,CCN1C(=O)/C(=C\N2CCN(c3ccccc3)CC2)SC1=S
4%,2,·,-4.8,3,-35%,Cc1cccc(CCN2CCN=C2N(C)C)c1
·,7,-18,-3.5,-4,·,CCCCN(C)C(=O)c1sc(=O)n(Cc2ccccc2C#N)c1C
-1%,3,2,-5.6,-3,-18%,COC(=O)CSC(=S)N1C(C)CCCC1C (stereo not given)
0%,6,0,-2.2,-2,-1%,Cc1ccc(NC(=O)CSc2nnc(Cn3c(=O)sc4ccccc43)n2C)cc1Cl
-2%,5,-1,-3.2,-1,0%,Cc1cc(Nc2ccc(F)cc2C)n2nc(C)nc2n1
-17%,-26,-17,0.5,8,-5%[15.4 µM],CC(=O)N1CCc2c(sc(NC(=O)C3CCN(S(=O)(=O)c4cccs4)CC3)c2C(N)=O)C1
6%,-3,-5,-2.8,-3,-4%,COc1cccc(CSc2nc(N)cc(N)n2)c1

Carrying on:
gsp antag,Six1-Eya2 inh,CtBP-E1A blk,D2 ag,D2 PAM,gsp ag,smiles
·,20,36,4.1,5,·,CCCC(=O)N1CCC1(C)C(=O)NCc1ccc(SC)cc1 (stereo not given)
-23%,?,?,-2.7,-14,-76%[inhibitor],NC(=O)/C(=N\OC(=O)c1ccco1)c1nc(-c2ccc(Br)cc2)cs1
13%,0,6,-2.5,-13,-7%,CNC(=S)NNC(=O)c1sccc1OCc1ccccc1
-9%,-7,-4,4.7,1,9%[15.4 µM],COC(=O)CSc1ncnc2c1cnn2-c1ccc(C)cc1C
·,-19,-12,-3.2,-13,·,Cc1nc2ccc(C(=O)NCCCn3ccnc3)cn2c1N(C)CC1CCCCC1
-3%,1,-3,-1.6,-2,-67%[inhibitor],CC1=C(C(=O)Nc2ccccc2)C(c2ccc(N(C)C)cc2)NC(=O)N1 (stereo not given)

Nothing new here: an excerpt of the list.
gsp antag,Six1-Eya2 inh,CtBP-E1A blk,D2 ag,D2 PAM,gsp ag,smiles
16%,-12,-28,3.7,-14,?,CCOc1cc(C2C(C#N)=C(N)SC(N)=C2C#N)ccc1OCCN1CCOCC1
9%,-4,-3,1.8,-101,·,CC(C)C[C@@H]1CN=C(N)N1C[C@@H]1CCCN1C[C@H](C)N1C[C@@H](Cc2ccccc2)N(CCc2ccc(Cl)c(Cl)c2)C1=N
5%,2,-3,-1.1,-1,-35%[inhibitor],CCN(C(=O)Cn1nc(C)c([N+](=O)[O-])c1C)c1c(N)n(Cc2ccccc2)c(=O)[nH]c1=O
11%,-3,-11,-2.2,-5,2%,CCCN1CN(Cc2ccccc2)CNC1=S
2%,7,23,-5.0,-17,12%,Cc1ccc(C(=O)NNC(=O)c2cccnc2SCc2cccc([N+](=O)[O-])c2)cc1
-16%,-10,1,-5.2,17,2%,CCN1C(=O)/C(=C\N2CCN(c3ccccc3)CC2)SC1=S
4%,2,·,-4.8,3,-35%,Cc1cccc(CCN2CCN=C2N(C)C)c1
·,7,-18,-3.5,-4,·,CCCCN(C)C(=O)c1sc(=O)n(Cc2ccccc2C#N)c1C
-1%,3,2,-5.6,-3,-18%,COC(=O)CSC(=S)N1C(C)CCCC1C (stereo not given)
0%,6,0,-2.2,-2,-1%,Cc1ccc(NC(=O)CSc2nnc(Cn3c(=O)sc4ccccc43)n2C)cc1Cl
-2%,5,-1,-3.2,-1,0%,Cc1cc(Nc2ccc(F)cc2C)n2nc(C)nc2n1
-17%,-26,-17,0.5,8,-5%[15.4 µM],CC(=O)N1CCc2c(sc(NC(=O)C3CCN(S(=O)(=O)c4cccs4)CC3)c2C(N)=O)C1
6%,-3,-5,-2.8,-3,-4%,COc1cccc(CSc2nc(N)cc(N)n2)c1
·,20,36,4.1,5,·,CCCC(=O)N1CCC1(C)C(=O)NCc1ccc(SC)cc1 (stereo not given)
-23%,?,?,-2.7,-14,-76%[inhibitor],NC(=O)/C(=N\OC(=O)c1ccco1)c1nc(-c2ccc(Br)cc2)cs1
13%,0,6,-2.5,-13,-7%,CNC(=S)NNC(=O)c1sccc1OCc1ccccc1
-9%,-7,-4,4.7,1,9%[15.4 µM],COC(=O)CSc1ncnc2c1cnn2-c1ccc(C)cc1C
·,-19,-12,-3.2,-13,·,Cc1nc2ccc(C(=O)NCCCn3ccnc3)cn2c1N(C)CC1CCCCC1
